Ran importin = RanGTP/importin-beta interaction disruptors – biochemical, CFP-Ran/YFP-importin-beta FRET, RCC1, cell-free, primary screen (AID 434961); CFP-Ran/YFP-importin-beta FRET, cell-free; active compounds read high; inhibition, %; actives 0.2% (n = 7,700);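 active = more than half of the replicate wells above 15% inhibition; inconclusive = exactly half above it; inactive = fewer than half above it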;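 also: 0% = DMSO wells and 100% inhibition = RanGDP control wells on each plate; stock of unstated strength diluted about 400-fold; mean of two wells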
Starred values were filed as active, the others as inactive; ? = inconclusive. A portion of the library; the hit share may differ from the screen's.

Start of the data: the first 6 entries, ahead of the listing:
Ran importin | mol
3.2 | C[C@@H]1CCCCO[C@H](CN(C)Cc2ccc(C(=O)O)cc2)[C@H](C)CN([C@H](C)CO)C(=O)c2cc(NC(=O)C3CCCCC3)ccc2O1
4.5 | C[C@H](CO)N1C[C@H](C)[C@H](CN(C)C(=O)Nc2ccccc2)Oc2c(NC(=O)c3nc4ccccc4s3)cccc2C1=O
-0.3 | C[C@@H]1CN([C@H](C)CO)C(=O)Cc2cc(NC(=O)Cc3cn(C)c4ccccc34)ccc2O[C@H]1CN(C)CC1CC1
-2.6 | C[C@@H]1CN([C@H](C)CO)C(=O)Cc2cc(N(C)C)ccc2O[C@@H]1CN(C)S(=O)(=O)c1cccs1
? | C[C@@H]1CCCCO[C@H](CN(C)Cc2ccncc2)[C@@H](C)CN([C@H](C)CO)C(=O)c2cc(N(C)C)ccc2O1
1.9 | C[C@H]1CN([C@@H](C)CO)C(=O)c2cccc(NC(=O)c3ccncc3)c2O[C@@H]1CN(C)C(=O)Nc1ccccc1

The whole of this part (from the top)
Ran importin | mol
3.2 | C[C@@H]1CCCCO[C@H](CN(C)Cc2ccc(C(=O)O)cc2)[C@H](C)CN([C@H](C)CO)C(=O)c2cc(NC(=O)C3CCCCC3)ccc2O1
4.5 | C[C@H](CO)N1C[C@H](C)[C@H](CN(C)C(=O)Nc2ccccc2)Oc2c(NC(=O)c3nc4ccccc4s3)cccc2C1=O
-0.3 | C[C@@H]1CN([C@H](C)CO)C(=O)Cc2cc(NC(=O)Cc3cn(C)c4ccccc34)ccc2O[C@H]1CN(C)CC1CC1
-2.6 | C[C@@H]1CN([C@H](C)CO)C(=O)Cc2cc(N(C)C)ccc2O[C@@H]1CN(C)S(=O)(=O)c1cccs1
? | C[C@@H]1CCCCO[C@H](CN(C)Cc2ccncc2)[C@@H](C)CN([C@H](C)CO)C(=O)c2cc(N(C)C)ccc2O1
1.9 | C[C@H]1CN([C@@H](C)CO)C(=O)c2cccc(NC(=O)c3ccncc3)c2O[C@@H]1CN(C)C(=O)Nc1ccccc1
-2.0 | Cc1noc(C)c1S(=O)(=O)Nc1ccc2c(c1)C(=O)N([C@@H](C)CO)C[C@@H](C)[C@@H](CN(C)C(=O)Nc1ccc3c(c1)OCO3)O2
? | C[C@@H]1CCCCO[C@@H](CN(C)C(=O)Nc2ccc(C(F)(F)F)cc2)[C@H](C)CN([C@H](C)CO)C(=O)c2cc(NS(C)(=O)=O)ccc2O1
2.9 | CNC[C@H]1Oc2ccc(NC(=O)CCCN(C)C)cc2CC(=O)N([C@H](C)CO)C[C@@H]1C
0.9 | C[C@@H]1CN([C@H](C)CO)C(=O)c2cccc(NC(=O)Nc3cccc4ccccc34)c2O[C@@H]1CN(C)C(=O)Nc1cccc2ccccc12
? | COc1ccc(S(=O)(=O)Nc2ccc3c(c2)CC(=O)N([C@H](C)CO)C[C@H](C)[C@H](CN(C)Cc2ccc(C(=O)O)cc2)O3)cc1
-0.6 | Cc1noc(C)c1S(=O)(=O)Nc1ccc2c(c1)C(=O)N([C@H](C)CO)C[C@H](C)[C@H](CN(C)C(=O)CCC(F)(F)F)OCCCC[C@@H](C)O2
-2.9 | COc1ccc(CN(C)C[C@@H]2OCCCC[C@@H](C)Oc3ccc(NC(=O)Nc4c(C)noc4C)cc3C(=O)N([C@@H](C)CO)C[C@H]2C)cc1
3.8 | Cc1noc(C)c1NC(=O)Nc1cccc2c1O[C@H](CN(C)Cc1ccncc1)[C@H](C)CN([C@H](C)CO)C2=O
-2.8 | C[C@@H]1CN([C@@H](C)CO)C(=O)c2cc(NC(=O)CCC(F)(F)F)ccc2O[C@@H](C)CCCCO[C@@H]1CN(C)Cc1ccccc1
-0.3 | COc1ccc(CN(C)C[C@@H]2Oc3ccc(NC(=O)CCC(F)(F)F)cc3C(=O)N([C@@H](C)CO)C[C@@H]2C)cc1
? | Cc1noc(C)c1NC(=O)N(C)C[C@@H]1OCCCC[C@@H](C)Oc2ccc(N(C)C)cc2C(=O)N([C@@H](C)CO)C[C@H]1C
-5.1 | COc1ccc(S(=O)(=O)N(C)C[C@@H]2Oc3ncc(Br)cc3C(=O)N([C@H](C)CO)C[C@@H]2C)cc1
-3.3 | C[C@@H]1CCCCO[C@@H](CN(C)C(=O)CCC(F)(F)F)[C@@H](C)CN([C@@H](C)CO)C(=O)c2cc(NS(=O)(=O)c3ccccc3)ccc2O1
-1.6 | C[C@H]1CN([C@@H](C)CO)C(=O)c2cccc(NC(=O)Nc3cccc4ccccc34)c2O[C@@H]1CN(C)C(=O)Nc1ccc(C(F)(F)F)cc1
-2.0 | Cc1noc(C)c1S(=O)(=O)Nc1ccc2c(c1)C(=O)N([C@H](C)CO)C[C@H](C)[C@@H](CN(C)C)OCCCC[C@@H](C)O2
5.5 | C[C@@H]1CN([C@H](C)CO)C(=O)CCCn2cc(nn2)CO[C@@H]1CN(C)C(=O)Nc1cccc2ccccc12
-0.5 | Cc1noc(C)c1S(=O)(=O)N(C)C[C@@H]1OCCCC[C@@H](C)Oc2ccc(N(C)C)cc2C(=O)N([C@@H](C)CO)C[C@H]1C
1.4 | C[C@H](CO)N1C[C@H](C)[C@H](CN(C)C(=O)C2CCCCC2)OCCCC[C@H](C)Oc2ccc(NS(C)(=O)=O)cc2C1=O
-0.8 | C[C@@H]1CCCCO[C@H](CN(C)C(=O)c2ccccc2)[C@H](C)CN([C@H](C)CO)C(=O)c2cc(NS(C)(=O)=O)ccc2O1
2.9 | C[C@@H]1CN([C@@H](C)CO)C(=O)Cc2cc(NS(=O)(=O)c3ccccc3)ccc2O[C@H]1CN(C)S(=O)(=O)c1cccs1
-2.0 | C[C@@H]1CN([C@H](C)CO)C(=O)c2cccc(NC(=O)c3nc4ccccc4s3)c2O[C@H]1CN(C)C(=O)NC1CCCCC1
5.1 | C[C@H](CO)N1C[C@H](C)[C@@H](CN(C)S(=O)(=O)c2ccc(Cl)cc2)Oc2c(NC(=O)Nc3cccc4ccccc34)cccc2C1=O
0.9 | C[C@H]1CN([C@@H](C)CO)C(=O)c2cccc(NS(=O)(=O)c3cn(C)cn3)c2O[C@@H]1CN(C)C
-6.5 | COc1ccc(CN(C)C[C@H]2Oc3ccc(NC(=O)Nc4c(C)noc4C)cc3CC(=O)N([C@H](C)CO)C[C@@H]2C)cc1
3.4 | C[C@H](CO)N1C[C@H](C)[C@H](CN(C)C(=O)c2ccccc2)OCc2cnnn2CCCC1=O
1.9 | Cc1noc(C)c1NC(=O)Nc1ccc2c(c1)CC(=O)N([C@H](C)CO)C[C@H](C)[C@@H](CN(C)S(=O)(=O)c1cn(C)cn1)O2
-0.8 | CNC[C@H]1OCCCC[C@@H](C)Oc2ccc(NC(=O)c3ccncc3)cc2C(=O)N([C@@H](C)CO)C[C@H]1C
1.0 | C[C@@H]1CN([C@H](C)CO)C(=O)c2cccc(NC(=O)c3ccncc3)c2O[C@@H]1CN(C)Cc1ccc(C(=O)O)cc1
-2.4 | C[C@@H]1CCCCO[C@H](CN(C)C)[C@@H](C)CN([C@@H](C)CO)C(=O)c2cc(NS(=O)(=O)c3cccs3)ccc2O1
1.3 | C[C@H](CO)N1C[C@H](C)[C@H](CN(C)C)Oc2ccc(NC(=O)NC3CCCCC3)cc2C1=O
-4.7 | COc1ccc(S(=O)(=O)N(C)C[C@@H]2Oc3c(NS(C)(=O)=O)cccc3C(=O)N([C@H](C)CO)C[C@H]2C)cc1
2.4 | Cc1noc(C)c1S(=O)(=O)Nc1ccc2c(c1)C(=O)N([C@@H](C)CO)C[C@@H](C)[C@@H](CN(C)C(=O)c1ccncc1)OCCCC[C@@H](C)O2
-13 | CC(C)NC(=O)Nc1cccc2c1O[C@@H](CN(C)Cc1ccc(Cl)c(Cl)c1)[C@H](C)CN([C@@H](C)CO)C2=O
-0.2 | COc1ccc(CN(C)C[C@H]2Oc3c(NC(=O)c4ccncc4)cccc3C(=O)N([C@@H](C)CO)C[C@@H]2C)cc1

Some of these compounds in order of formula weight, lowest first:
Ran importin | mol
5.5 | C[C@@H]1CN([C@H](C)CO)C(=O)CCCn2cc(nn2)CO[C@@H]1CN(C)C(=O)Nc1cccc2ccccc12
1.0 | C[C@@H]1CN([C@H](C)CO)C(=O)c2cccc(NC(=O)c3ccncc3)c2O[C@@H]1CN(C)Cc1ccc(C(=O)O)cc1
-2.0 | Cc1noc(C)c1S(=O)(=O)Nc1ccc2c(c1)C(=O)N([C@H](C)CO)C[C@H](C)[C@@H](CN(C)C)OCCCC[C@@H](C)O2

(cont.)
Ran importin | mol
-1.8 | Cc1noc(C)c1S(=O)(=O)N(C)C[C@@H]1Oc2ccc(NC(=O)Nc3ccccc3)cc2CC(=O)N([C@H](C)CO)C[C@@H]1C
-0.1 | C[C@H](CO)N1C[C@H](C)[C@@H](CN(C)C(=O)Nc2ccc(F)cc2)Oc2ccc(NC(=O)c3ccncc3)cc2C1=O
0.5 | C[C@@H]1CN([C@@H](C)CO)C(=O)Cc2cc(NC(=O)C3CC3)ccc2O[C@H]1CN(C)Cc1ccc(Cl)c(Cl)c1
7.7 | C[C@H](CO)N1C[C@H](C)[C@H](CN(C)C(=O)c2ccc(N3CCN(C)CC3)cc2)OCc2cn(nn2)CCCC1=O
-0.8 | C[C@H]1CN([C@@H](C)CO)C(=O)Cc2cc(NC(=O)Cc3cn(C)c4ccccc34)ccc2O[C@@H]1CN(C)S(=O)(=O)c1cn(C)cn1
5.5 | CC(C)NC(=O)Nc1ccc2c(c1)C(=O)N([C@@H](C)CO)C[C@H](C)[C@@H](CN(C)C(=O)Nc1ccccc1)OCCCC[C@@H](C)O2
-0.5 | C[C@H](CO)N1C[C@H](C)[C@H](CN(C)C(=O)CCCN(C)C)OCCCC[C@H](C)Oc2ccc(NS(=O)(=O)c3ccccc3)cc2C1=O
2.9 | C[C@@H]1CCCCO[C@@H](CN(C)C(=O)Nc2cccc3ccccc23)[C@@H](C)CN([C@@H](C)CO)C(=O)c2cc(N(C)C)ccc2O1
-3.7 | C[C@H]1CCCCO[C@@H](CN(C)C)[C@@H](C)CN([C@@H](C)CO)C(=O)c2cc(NS(=O)(=O)c3cn(C)cn3)ccc2O1
1.5 | C[C@H]1CCCCO[C@H](CN(C)Cc2ccccc2)[C@@H](C)CN([C@@H](C)CO)C(=O)c2cc(NC(=O)Nc3ccc4c(c3)OCO4)ccc2O1
-2.2 | Cc1noc(C)c1NC(=O)N(C)C[C@H]1OCCCC[C@H](C)Oc2ccc(NS(=O)(=O)c3cccs3)cc2C(=O)N([C@H](C)CO)C[C@@H]1C
-0.2 | Cc1noc(C)c1NC(=O)N(C)C[C@@H]1Oc2c(NC(=O)c3cnccn3)cccc2C(=O)N([C@@H](C)CO)C[C@H]1C
-0.5 | C[C@@H]1CN([C@H](C)CO)C(=O)c2cccc(N(C)C)c2O[C@H]1CN(C)CC1CC1
-1.8 | COc1ccc(S(=O)(=O)Nc2ccc3c(c2)CC(=O)N([C@@H](C)CO)C[C@H](C)[C@@H](CN(C)Cc2ccc(C(F)(F)F)cc2)O3)cc1
7.3 | C[C@@H]1CN([C@@H](C)CO)C(=O)c2cc(NS(=O)(=O)c3ccccc3)ccc2O[C@@H](C)CCCCO[C@@H]1CN(C)C(=O)CCCN(C)C
? | C[C@@H]1CN([C@H](C)CO)C(=O)c2cc(NC(=O)NC3CCCCC3)ccc2O[C@@H]1CN(C)C(=O)NC1CCCCC1
0.6 | CC(C)NC(=O)Nc1ccc2c(c1)C(=O)N([C@@H](C)CO)C[C@@H](C)[C@@H](CN(C)Cc1ccccc1)OCCCC[C@H](C)O2
0.2 | C[C@@H]1CN([C@@H](C)CO)C(=O)Cc2cc(NC(=O)CCN3CCOCC3)ccc2O[C@@H]1CN(C)C
4.7 | CC(C)NC(=O)Nc1ccc2c(c1)C(=O)N([C@@H](C)CO)C[C@H](C)[C@@H](CN(C)Cc1ccc(C(=O)O)cc1)OCCCC[C@@H](C)O2
0.8 | C[C@H](CO)N1C[C@H](C)[C@H](CN(C)C(=O)Nc2ccc(C(F)(F)F)cc2)Oc2c(NC(=O)c3ccncc3)cccc2C1=O
0.2 | CNC[C@H]1Oc2ccc(NC(=O)C3CC3)cc2CC(=O)N([C@H](C)CO)C[C@H]1C
0.4 | Cc1noc(C)c1NC(=O)N(C)C[C@@H]1OCc2cn(nn2)CCCC(=O)N([C@H](C)CO)C[C@H]1C
-1.1 | COc1ccc(S(=O)(=O)N(C)C[C@H]2Oc3ccc(NC(=O)C4CC4)cc3C(=O)N([C@H](C)CO)C[C@@H]2C)cc1
1.2 | Cc1noc(C)c1NC(=O)Nc1ccc2c(c1)C(=O)N([C@@H](C)CO)C[C@@H](C)[C@H](CN(C)C(=O)C1CCCCC1)OCCCC[C@@H](C)O2
1.0 | C[C@@H]1CN([C@H](C)CO)C(=O)c2cc(NC(=O)C3CC3)ccc2O[C@H]1CN(C)Cc1ccc(Cl)c(Cl)c1
-0.2 | C[C@H](CO)N1C[C@H](C)[C@H](CN(C)S(C)(=O)=O)Oc2ncc(C#Cc3ccc(C(F)(F)F)cc3)cc2C1=O
-4.8 | C[C@@H]1CN([C@H](C)CO)C(=O)CCCn2cc(nn2)CO[C@@H]1CN(C)Cc1ccc2cccnc2c1
0.0 | C[C@H](CO)N1C[C@H](C)[C@H](CN(C)Cc2ccccc2)Oc2ncc(C#Cc3ccccc3)cc2C1=O
-2.1 | Cc1noc(C)c1NC(=O)Nc1ccc2c(c1)CC(=O)N([C@H](C)CO)C[C@@H](C)[C@@H](CN(C)S(=O)(=O)c1ccccc1)O2
-1.2 | C[C@@H]1CN([C@H](C)CO)C(=O)CCCn2cc(nn2)CO[C@@H]1CN(C)C(=O)Nc1ccc2c(c1)OCO2
1.9 | C[C@H](CO)N1C[C@H](C)[C@@H](CN(C)Cc2ccccc2)OCCCC[C@H](C)Oc2ccc(NC(=O)CCCN(C)C)cc2C1=O
-2.3 | COc1ccc(S(=O)(=O)N(C)C[C@H]2Oc3ccc(NC(=O)c4ccncc4)cc3C(=O)N([C@H](C)CO)C[C@H]2C)cc1
2.5 | COc1ccc(NC(=O)Nc2ccc3c(c2)C(=O)N([C@@H](C)CO)C[C@@H](C)[C@H](CN(C)S(=O)(=O)c2cn(C)cn2)O3)cc1

Compound activity: PubChem BioAssay, Broad Institute
